ugtP null kill: growth inhibition of ugtP-null S. aureus, primary screen, RN4220 ugtP deletion, OD600; 16 h; some inactives read as strong as hits; growth inhibition, % (test concentration not listed); 330,000 tested, 0.54% active;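 active = z-score under -3 and OD600 up to 0.15 on both plates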;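 note: plate controls were untreated wells for no effect and antibiotic for full effect; wells of about 80 µL received 100 nL stock; the first replicate is given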
Autofluor counter: counter-screen for toxin protease inhibitors: compound fluorescence; compound autofluorescence counterscreen, microsphere flow cytometry; hits give high values; fluorescence intensity (concentration not given with the values); 360,000 tested, 3.1% active;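 active = at least 3 SD above the mean of all compounds, about 16000 in these data; inconclusive = too few beads counted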;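 note: 100 nL of 1 mM stock went into each well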
BJeLR lethal: MLPCN primary cell-based screen for lethality selective to Ras in HRASV12 cells | AID 1554, 2009 | inhibition, % (test concentration not listed) | BJeLR (HRASV12) viability, CellTiter-Glo ATP luminescence, 48 h; reference of the scale not given here | 300,000 tested, 0.17% active;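 active = replicate mean above 50%; inconclusive = above 50% but judged a plate artefact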;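 note: 50 nL library stock added to about 25 µL; numbers are from one replicate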
Mtb hypoxia rep: PubChem AID 1159583 | M. tuberculosis hypoxia-regulated fluorescent reporter, fluorescence | fluorescence inhibition, % (concentration not given with the values) | 300,000 tested, 0.1% active;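 active = 35 to 45% if threefold the growth effect, above 45% if 1.5-fold the growth effect; inactive = the rest, general growth blockers included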;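 note: wells of about 50 µL received 100 nL stock; 0% = vehicle wells and 100% = reference inhibitor wells; whole bacteria with a GFP reporter of the hypoxia response; strong numbers were not always called active; many hits fall short of the cut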
RN4220 kill: growth inhibition of S. aureus RN4220, primary screen, OD600; AID 1259311, 2017; 330,000 tested, 0.33% active; inhibition, % (concentration not given with the values); 16 h;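 active = z-score of -3 or lower and OD600 up to 0.18 on both plates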;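 note: plate controls were untreated cells for no effect and reference antibiotic for full effect; stock transfer was 100 nL into about 80 µL; one replicate is shown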
PrP 5UTR inh: inhibition of PrP 5' UTR reporter expression; AID 488862, 2010; 340,000 tested, 0.35% active; inhibition, % (no concentration beside the values); cell-based PrP 5' UTR mRNA reporter, plate reader;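 active = every replicate at 50% or more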;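 note: 0 = median of the neutral control wells; tested in H4 reporter cells; numbers are from one replicate; inactives centre near -14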
Mtb hypoxia rep growth: second read-out of Mtb hypoxia rep, no call of its own (marks repeat the call); growth inhibition, %; measured here: M. tuberculosis growth (absorbance);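 0% = vehicle and 100% = reference antibiotic; read after six days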
* = called active by the depositor; ? = inconclusive; . = not tested or not shown; ! = not confirmed by another sample. Compounds were not picked by outcome. About 4% of those tested had a hit in this group.

structure | ugtP null kill | Autofluor counter | BJeLR lethal | Mtb hypoxia rep | Mtb hypoxia rep growth | RN4220 kill | PrP 5UTR inh
CC(C)(C)c1ccc(C(=O)Nc2ccc(F)cc2)s1 | -5 | 4155 | 1 | 15 | 13 | 3.7 | -80
CCN(CC)C(=O)CSc1nc2ccccc2c(=O)n1-c1ccccc1OC | -3 | 2163 | -3 | . | . | -0.6 | 2
CCCc1nc2ccccc2n1Cc1ccccc1OC | 4 | 4856 | 19 | 17 | 13 | 23 | -20
CC(NCc1ccc(S(N)(=O)=O)cc1)C(=O)NCc1ccccc1 (configuration not stated) | 4 | 3992 | 5 | -9 | 4 | 3.5 | 1
COc1ccc(NC2c3ccccc3C(=O)N2c2ccccn2)cc1Cl (configuration not stated) | 2 | 4184 | -8 | 7 | 11 | 4.0 | 11
Cc1cccc(NC(=O)C(=O)NCc2ccccn2)c1 | 0 | 9983 | -2 | 8 | 6 | 0.0 | -59
Cc1c(C=O)cnn1CCC(=O)O | 1 | 10860 | 3 | -4 | -2 | 4.0 | -13
CCOc1ccc(CN2C(=O)c3ccccc3C2=O)cc1C(=O)Nc1nnc(SCC)s1 | -19 | 8866 | 13 | -5 | 6 | 4.9 | -11
CC1CCN(C(=O)CSc2nnc(CNC(=O)c3ccco3)o2)CC1 | 11 | 3378 | -12 | . | . | -2.0 | -12
CSc1sc(C(=O)N(C)C)cc1S(=O)(=O)C(C)C | 6 | 5767 | -3 | 1 | 8 | 2.7 | -21
CC(C)(C)C(=O)NCc1ccc(C(=O)CSc2nnc(-c3ccncc3)n2C2CC2)s1 | -2 | . | . | 0 | 0 | -0.3 | -25
CC(=NNc1ccc(C(=O)O)cc1)c1ccc2c(c1)Nc1ccccc1S2 | -2 | . | . | 10 | -1 | -4.6 | .
O=C(Nc1cc(S(=O)(=O)Nc2ccc(Cl)cc2)ccc1O)c1ccc(S(=O)(=O)N2CCCCCC2)cc1 | 3 | 3231 | -6 | 9 | -1 | -1.3 | 6
Cc1ccc(F)cc1NC(=O)CCc1c(C)[nH]c(=O)c(C#N)c1C | 2 | 5488 | -6 | -4 | 4 | -1.6 | -20
CCc1c(O)nc(SC2CC(=O)N(c3ccccc3)C2=O)[nH]c1=O (configuration not stated) | 2 | 3271 | 1 | 1 | 8 | 4.9 | -20
COCCN(C(=O)c1ccco1)c1nnc(-c2ccc(OC)c(OC)c2)s1 | 0 | 2514 | 3 | 22 | 3 | -7.4 | -1
CCOC(=O)c1sc(N/N=C/c2ccccc2)nc1C | . | 2858 | 5 | . | . | . | -136
CCOc1cc(C(=O)NC)cc(Br)c1OC | -67 | 4769 | -4 | -2 | 14 | 4.8 | -7
COCC(=O)N(C)c1nnc(-c2ccccn2)s1 | 6 | 3931 | -2 | 19 | 10 | 3.5 | -3
CCC(=O)NCCCCCCCCCNC(=O)CC | 15 | 2415 | -14 | -9 | -4 | 5.4 | -12
CN(C(=O)c1cccnc1)c1nnc(-c2ccccn2)s1 | -1 | 4247 | -21 | -9 | 1 | 1.5 | -23
CCN1C(=O)N[C@@H](c2ccccc2)C(C(=O)OC)=C1C | . | 3746 | 3 | . | . | . | -10
COc1ccccc1-c1cc(C(=O)NCCN2CCOCC2)no1 | 0 | 11229 | -2 | 1 | -9 | 0.3 | -73
CCN(CC(=O)NCc1cccs1)C(=O)c1cccc(S(=O)(=O)Nc2ccc(F)cc2)c1 | 5 | 3778 | . | -7 | -2 | 4.4 | -19
CCN1CCN(c2ccc(S(=O)(=O)N3CCCC3)cn2)CC1 | 4 | 4765 | 1 | 4 | 3 | 2.7 | -22

(listing goes on)
structure | ugtP null kill | Autofluor counter | BJeLR lethal | Mtb hypoxia rep | Mtb hypoxia rep growth | RN4220 kill | PrP 5UTR inh
CC1CCc2cc(F)ccc2N1S(=O)(=O)c1ccc(F)cc1 (configuration not stated) | 6 | 4429 | 2 | 19 | 8 | 8.1 | -2
Cn1cc(C(=O)N/N=C/C=C/c2ccccc2)ccc1=O | . | 2600 | 1 | . | . | . | -19
CCOC(=O)C1(Cc2cccc(F)c2)CCN(C(=O)c2cnc(C)cn2)CC1 | 3 | 3592 | 0 | 4 | 12 | 6.7 | -17
Cc1ncc([N+](=O)[O-])n1CC(=O)Nc1ccc(F)cc1 | -4 | 3894 | 7 | 14 | 8 | -0.8 | -22
CCOc1ccc(NC(=S)N(C)C)cc1 | 6 | 4091 | -13 | -14 | 5 | 4.3 | -9
COc1cc(OC)cc(C(=O)NNC(=O)CN2C(=O)NC3(CCCC3)C2=O)c1 | 4 | 4026 | . | 6 | 7 | 1.2 | .
O=C(COc1ccc(Cl)cc1)NCc1nnc(SCC(=O)N2CCCC2)o1 | 11 | 2194 | -4 | 10 | 4 | 2.3 | -23
CC(=O)c1c(COC(=O)c2ccc(F)cc2)nc2ccccc2[n+]1[O-] | 12 | 5183 | -9 | 0 | -2 | 4.1 | .
COC(=O)C1=C(C)N(C)C(=S)N(C)C1c1ccc(OC)cc1 (configuration not stated) | 19 | 4875 | 1 | 10 | -1 | 3.0 | -18
COC(=O)c1ccc(NC(=O)CSc2nc3ncccc3[nH]2)cc1 | 5 | 3765 | -4 | 4 | 0 | 4.0 | -31
O=C(Nc1ccc(C(=O)O)cc1)/C(=C\c1ccco1)NC(=O)c1ccccc1Cl | 8 | 5293 | -8 | 4 | 15 | 1.0 | -17
CCNC(=O)c1ccc(CSc2nc3ccccc3s2)cc1 | 1 | 5544 | 11 | 5 | 4 | 9.1 | -41
O=C(Cn1nc(C(F)(F)F)c2c1CCC2)Nc1ccccc1C(F)(F)F | 0 | 5177 | -23 | . | . | 1.5 | -23
O=C(NC1CCCC1)C1CC(O)CN1C(=O)Nc1ccccc1 (configuration not stated) | -3 | 3472 | -2 | -2 | -1 | 4.4 | 4
O=C(CCN1C(=O)COc2ccccc21)NCc1cccs1 | 15 | 7079 | 0 | -1 | 3 | 5.9 | -20
O=C(c1ccc(Cl)cc1)N1CCC(N2CCC(C(=O)N3CCOCC3)CC2)CC1 | 17 | 6717 | 5 | 5 | -4 | 4.6 | -12
COc1ccc(Cl)cc1C(=O)NNC(=O)c1n[nH]c2ccccc12 | 2 | 3340 | . | 7 | -4 | 4.3 | -24
COc1cccc(N(CC(=O)O)S(=O)(=O)c2ccccc2)c1 | 4 | 4809 | 1 | 5 | 11 | 3.0 | -15
C[C@H](NC(=O)OC(C)(C)C)C(=O)NN=CC1=Cc2ccccc2OC1 | 2 | . | . | 7 | 1 | 3.3 | .
C#C[C@]1(O)CC[C@H]2[C@@H]3CCc4cc(OC5CCCC5)ccc4[C@H]3CC[C@@]21C | . | 5838 | 5 | . | . | . | 61*!
O=C1CSC(=NC2CCCCC2)N1 | 1 | 2510 | 2 | 10 | 7 | 5.5 | -7
O=C(N/N=C/c1ccco1)c1cc2ccccc2o1 | . | 5973 | 4 | . | . | . | -27
O=C(NCC(=O)N1CCN(c2ncccn2)CC1)c1cccs1 | 15 | 15749 | 2 | 5 | 5 | 7.7 | -23
CCOC(=O)C1CCCN(C(=O)c2ccc(NC(=O)CC3SC(N4CCCC4)=NC3=O)cc2)C1 (configuration not stated) | 9 | ? | -2 | 7 | 7 | 2.4 | -23
CCOC(=O)C1=C(C)C(c2cccc(Oc3ccccc3)c2)NC(=S)N1 (configuration not stated) | -20 | 2046 | -7 | -3 | 14 | 11 | -6

Additional compounds follow.
structure | ugtP null kill | Autofluor counter | BJeLR lethal | Mtb hypoxia rep | Mtb hypoxia rep growth | RN4220 kill | PrP 5UTR inh
CN(C)c1nccc(NCc2ccccc2)c1C#N | 4 | 2506 | 2 | 3 | 9 | 8.0 | -28
O=C(NCCCN1CCOCC1)/C(=C/c1ccc(F)cc1)NC(=O)c1ccccc1 | 3 | 4209 | -1 | -3 | 13 | 4.0 | -4
Cc1cc(NC(=O)C2CCCCC2C(=O)O)no1 (configuration not stated) | 4 | 2786 | 7 | . | . | -0.2 | -27
C[n+]1c2ccccc2nc2ccc(NCCO)cc21 | 9 | 4161 | 11 | . | . | 0.6 | -10
ON=Cc1ccccc1OCc1ccccc1F | 9 | . | . | -3 | 2 | 14 | .
C/C(=N\NC(=O)C1CC1)c1ccc(N2CCOCC2)cc1 | . | 4732 | 0 | . | . | . | -18
CSc1ncccc1C(=O)OCC(=O)NC12CC3CC(CC(C3)C1)C2 | -3 | 3692 | . | 12 | 10 | 0.4 | -25
COc1cc(OC)c(NC(=O)c2ccc(F)cc2)cc1Cl | 0 | 3796 | -3 | 6 | 3 | 4.5 | -13
C[n+]1c2n(c3ccccc31)N=C(c1ccc(-c3ccccc3)cc1)CS2 | 101* | 4324 | 1 | 6 | 3 | 100* | -18
CN(C)S(=O)(=O)c1ccc(N2CCCC2)c(C(=O)N2CCN(S(=O)(=O)c3cccc(F)c3)CC2)c1 | 4 | 5748 | -2 | 13 | 3 | 0.4 | -16
COCCNS(=O)(=O)c1ccc(OCC(=O)OC)c(Cl)c1 | 2 | 9397 | . | -2 | 11 | 3.5 | -16
CCCn1ncc(CN2CCC(Cc3cccc(F)c3)(C(=O)OCC)CC2)c1C | 12 | 3429 | -6 | 2 | -6 | 6.3 | -13
O=C1OCCC1Sc1nc2cc(Cl)ccc2s1 (configuration not stated) | 11 | 8017 | 9 | 10 | 6 | 7.2 | 1
CCCCNCCCOc1cccc(Cl)c1Cl | -11 | 11403 | -11 | 14 | 0 | 1.7 | -25
O=[N+]([O-])c1ccc(NCCOc2ccccc2Cl)nc1 | 8 | 3898 | 2 | -3 | -5 | -4.1 | -3
O=C(CSc1nnc(Cn2c(=O)sc3ccccc32)n1-c1ccccc1)NCC1CCCO1 (configuration not stated) | 0 | 5366 | -11 | . | . | 0.6 | -12
CCN(c1ccccc1)S(=O)(=O)c1ccc(Cl)c(NC(=O)CN(C)C2CCN(C)CC2)c1 | . | ? | -1 | . | . | . | -9
O=C(Cc1ccccc1)NNC(=S)NC(=O)c1cccnc1 | 0 | . | -4 | -3 | 1 | 3.3 | -54
O=C(NCCN=C1NS(=O)(=O)c2ccccc21)c1ccncc1 | 4 | 11302 | 15 | 8 | 7 | 1.9 | -22
CCCC(=O)Nc1ccc2c(c1)nc(CCNC(=O)c1ccccc1)n2C | -3 | 10729 | -5 | -11 | -1 | 1.5 | -9
CCC(=O)Nc1cccc(C2=NOC3(C2)CC(C(N)=O)N(C(=O)c2ccc(OC)cc2)C3)c1 (configuration not stated) | -2 | . | . | -10 | 1 | 0.7 | .
O=c1c2sc3ccccc3c2[nH]c(=S)n1CCN1CCOCC1 | 11 | 3899 | -4 | -1 | 11 | 1.0 | -25
CC1CC(C)CN(Cc2nc(N)nc(Nc3ccccc3)n2)C1 (configuration not stated) | 3 | 3064 | 3 | 11 | 4 | 2.9 | 11
Cc1nnc(NN=Cc2ccc(-c3ccc(Br)cc3)o2)n1N | 11 | . | . | 2 | 7 | 4.8 | .
Cc1c(C(=O)Nc2ccc(F)cc2)c2ccccn2c1CCc1ccncc1 | 0 | 2099 | -1 | 13 | 17 | 7.8 | -39

The listing continues.
structure | ugtP null kill | Autofluor counter | BJeLR lethal | Mtb hypoxia rep | Mtb hypoxia rep growth | RN4220 kill | PrP 5UTR inh
COc1ccccc1N1C(=O)C(Cl)=C(N2CCCC2)C1=O | 11 | 3491 | -1 | -2 | 9 | -2.2 | -13
O=C(O)c1ccccc1-n1c2ccccc2c2ccccc21 | . | 3616 | 2 | . | . | . | -11
O=C(CNC(=O)N1CC(=O)Nc2ccccc21)NCCc1ccc(Cl)cc1 | 6 | 5146 | 3 | 3 | 12 | -3.1 | -19
Cc1cscn1 | 6 | 4181 | . | 8 | 2 | 2.7 | -12

Retrieved one by one from the list above (4):
structure | ugtP null kill | Autofluor counter | BJeLR lethal | Mtb hypoxia rep | Mtb hypoxia rep growth | RN4220 kill | PrP 5UTR inh
O=C(CNC(=O)N1CC(=O)Nc2ccccc21)NCCc1ccc(Cl)cc1 | 6 | 5146 | 3 | 3 | 12 | -3.1 | -19
Cc1cscn1 | 6 | 4181 | . | 8 | 2 | 2.7 | -12
O=C(O)c1ccccc1-n1c2ccccc2c2ccccc21 | . | 3616 | 2 | . | . | . | -11
COc1ccccc1N1C(=O)C(Cl)=C(N2CCCC2)C1=O | 11 | 3491 | -1 | -2 | 9 | -2.2 | -13

Compound activity deposited in PubChem by several laboratories.
